Mtb H37Rv = Confirmatory growth inhibition assay against Mycobacterium tuberculosis H37Rv, potency (AID 1949); most inactive calls were filed without a number and no value below 0 was filed; inhibition, % at 10 µg/mL; hits with a dose series show IC50 in µg/mL; 100,000 tested, 1.6% active;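 active means confirmed in a dose series; inconclusive means about 50% or more but not retested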;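 further: bacteria grown 7 days with compound before Alamar blue readout; 0% = untreated bacteria and 100% = reference antibiotic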
* marks the source's active call; other numbers are inactive results; i = inactive; ? = inconclusive.

SMILES	Mtb H37Rv
COC(=O)c1cccc(NS(=O)(=O)c2ccc(OC)c(Cl)c2Cl)c1C	i
O=C(OCc1ccccc1)C1C2C=CC3(CN(c4cccc5ccccc45)C(=O)C13)O2 (stereo not drawn)	i
Cc1ccc(-c2cc(C(F)F)n3ncc(C(=O)Nc4cccnc4)c3n2)cc1	i
COc1ccccc1C1=NN(S(C)(=O)=O)C(c2ccco2)C1 (stereo not drawn)	i
Cn1nnc2cc(C(=O)Nc3ccc(N4CCOCC4)cc3)ccc21	i
COC(=O)c1ccc(C2C3C(=O)NC(=O)C3ON2c2ccc(Br)cc2)cc1 (stereo not drawn)	i
Cc1cccc(CN(CC(=O)Nc2cccc([N+](=O)[O-])c2)S(=O)(=O)c2ccc(Cl)cc2)c1	3%
CCN(CC)c1ccc(S(=O)(=O)C(F)(F)F)cc1	i
O=C(C(Cc1ccccc1)N1C(=O)C2C3CCC(C3)C2C1=O)N1CCOCC1 (stereo not drawn)	i
COCCNC(=O)COc1cccc(Cl)c1	i
CCOc1ccc(NS(=O)(=O)c2cc(OC)ccc2OC)cc1	2%
CCOc1cc(/C=C2\C(=O)N(c3nc(-c4ccc(Br)cc4)cs3)N=C2c2ccccc2)ccc1O	0%
Cc1cn(S(=O)(=O)c2cc(C)c(Cl)cc2C)cn1	i
CCSc1nnc(NC(=O)C(CC)CC)s1	i
CCC1(C)Cc2ccccc2-c2c1c(=O)n(-c1ccc(C)cc1)c1nnnn21 (stereo not drawn)	2%
O=C(Nc1ccc(F)cc1)c1cc2ccccc2o1	5%
Cc1cc(C)cc(N2C(=O)c3cccc4c(C(=O)c5ccccc5)ccc(c34)C2=O)c1	i
CC(=O)c1ccc(NC(=O)/C(=C\c2ccc(F)cc2)NC(=O)c2ccco2)cc1	i
Nc1ccc(C(=O)O)c(NC(=O)c2ccco2)c1	i
CCC(SC1=NCCS1)C(=O)Nc1ccc(NC(C)=O)cc1 (stereo not drawn)	i
O=C(Nc1ccc(Br)cc1F)C1CCCO1 (stereo not drawn)	i
O=C(O)CN(CCc1ccccc1)CC(=O)O	i
Cc1c(C(=O)N2CCCC(C)C2)oc2ccccc12 (stereo not drawn)	i
COc1ccc2c([N+](=O)[O-])c(N3CCCCCC3)[nH]c2c1	i
CS(=O)(=O)N(CC(=O)N1CCOCC1)c1ccc2c(c1)OCCO2	i
COC(=O)c1ccccc1NC(=O)c1ccc(NC(=O)COc2ccccc2)cc1	i
O=C(O)CCNC(=O)c1cncc(O)c1	i
CC1CCN(c2c([N+](=O)[O-])c(=O)n(Cc3ccccc3)c3ccccc23)CC1	i
CCc1ccc(-c2csc(NC(=O)c3cccc([N+](=O)[O-])c3)n2)cc1	i
CCOC(=O)Cc1nc(-c2ccc(Cl)cc2)cs1	i
CCOC(=O)c1c(NC(=O)c2ccc(Br)o2)sc(C(N)=O)c1C	i
CC(=O)Nc1nc2cc(Cl)c(C)cc2s1	i
C=CCn1c(-c2ccc([N+](=O)[O-])cc2)n[nH]c1=S	i
COC(=O)c1sccc1NC(=O)c1cccnc1	i
COc1ccc(OC(=O)CCc2ccccc2)cc1	i
COc1cc(/C=C2/C(=O)NC(=O)N(c3ccccc3F)C2=O)ccc1OCc1ccc([N+](=O)[O-])cc1	i
COc1ccc(-c2c(C#N)c(SCC(N)=O)nc(C)c2C(=O)Nc2ccccc2)cc1OC	i
Cc1cc(F)ccc1C(=O)Nc1ccccc1C(F)(F)F	i
CC(=O)Nc1ccc2nc(SCC(=O)Nc3cccc(C)c3)sc2c1	i
CC(C)c1ccc(OCc2nnc(SCC(=O)Nc3cccc(C(=O)N4CCOCC4)c3)o2)cc1	i
COc1ccc(NC(=O)C2CC(=O)OC2c2ccccc2)cc1 (stereo not drawn)	3%
O=S(=O)(Nc1cc(Cl)ccc1Oc1ccccc1)c1cccs1	i
CCOC(=O)c1cc(CC)sc1NC(=O)C1CC(=O)NN1Cc1ccccc1 (stereo not drawn)	4%
COc1ccc(C2CC(=O)c3cnc(NCCc4ccccc4)nc3C2)cc1 (stereo not drawn)	i
CCCn1nnc(NC(=O)c2ccc(Br)cc2)n1	i
O=C(CCc1ccccc1)NC(c1ccc([N+](=O)[O-])cc1)c1c(O)ccc2ccccc12 (stereo not drawn)	0%
O=[N+]([O-])c1ccc(CSc2ccc(Br)cc2)cc1	2%
CC(C)CC(NC(=O)CC12CC3CC(CC(C3)C1)C2)C(=O)NC1CCCCC1 (stereo not drawn)	i
COC(=O)c1c(NC(=O)C(F)(F)F)sc2c1CCCC2	i
Cc1ccc(-c2csc3ncnc(NCCO)c23)cc1	i
Cc1c(C(=O)NC(=S)Nc2ccc(N3CCN(C(=O)c4cccs4)CC3)c(Cl)c2)cccc1[N+](=O)[O-]	?
CCOC(=O)c1sc2ncn(C(CC)C(=O)OC)c(=O)c2c1C (stereo not drawn)	i
CCCCNCc1cc(Br)c(OCc2cccs2)c(OC)c1	30%
COc1ccc(C2(C(=O)Nc3ccccc3C)CCOCC2)cc1	i
CSc1ccc(S(=O)(=O)N(CC(=O)Nc2cccc(F)c2)c2ccc(C)cc2)cc1	i
CC(=O)CC(NC(=S)N1CCOCC1)c1ccccc1 (stereo not drawn)	2%
CCCSc1[nH]c2cc(OC)ccc2c1[N+](=O)[O-]	i
Cc1cccc(OCC(=O)Nc2ncn[nH]2)c1	6%
CCOc1ccc(S(=O)(=O)Nc2cc([N+](=O)[O-])ccc2OC)cc1	i
Cc1ccc(NC(=O)C2CCCNC2=O)nc1 (stereo not drawn)	i

(further entries)
SMILES	Mtb H37Rv
Cc1cc(C)cc(OCC(=O)Nc2ccc(N3CCOCC3)cc2)c1	i
O=C(NCCCO)NC12CC3CC(CC(C3)C1)C2	1%
COc1ccc(NS(=O)(=O)c2ccc(Oc3ccccc3OC)cc2)cc1	3%
CC1(C(=O)Nc2ccc(NC(=O)C3(C)CCCC3)cc2)CCCC1	i
CC(C(=O)Nc1ccc(Cl)cc1C(=O)c1ccccc1)N1C(=O)C2C3C=CC(C3)C2C1=O (stereo not drawn)	i
O=C(CCC(=O)OCc1cccc([N+](=O)[O-])c1)Nc1ccc(F)cc1	i
Cc1cc(C(=O)Nc2sc3c(c2C#N)CCC(C)C3)no1 (stereo not drawn)	i
COC(=O)c1c(-c2cccs2)csc1NC(=O)Cc1ccc(Br)cc1	i
COc1ccc(Cl)cc1N(CC(=O)Nc1cccc(Cl)c1C)S(C)(=O)=O	1%
O=C(O)c1ccccc1SC1CC(=O)N(c2ccc(C(F)(F)F)cc2)C1=O (stereo not drawn)	i
COc1ccc(N2CCN(C3CC(=O)N(c4cc(Cl)cc(Cl)c4)C3=O)CC2)cc1 (stereo not drawn)	i
COc1cc2[nH]c(=S)n(Cc3cccs3)c(=O)c2cc1OC	i
COc1ccccc1N1CCN(C(=O)c2ccc(Cl)c(S(=O)(=O)N3CCOCC3)c2)CC1	i
COc1ccc(NC(=O)CN2C(=O)C3CC=C(Cl)CC3C2=O)cc1 (stereo not drawn)	i
C/C(=N\N1CCN(C2c3ccccc3-c3ccccc32)CC1)c1ccncc1	i
Cc1cccc(-c2nnc(SCC(=O)Nc3cc(F)ccc3C)n2-c2ccccc2)c1	i
CC1(C)CC(NC(=O)COc2ccccc2Cl)CC(C)(C)N1	0%
COc1ccc(C(=O)O/N=C(\N)c2cccnc2)cc1OC	i
CCS(=O)(=O)N1CCC(C(=O)Nc2cccc(O)c2)CC1	i
CCOc1cccc(C2NC(=S)NC(C)=C2C(=O)Nc2ccccc2)c1 (stereo not drawn)	i
CC(NCC(O)COCc1ccc(Cl)cc1)c1ccccc1 (stereo not drawn)	i
CCOc1ccc(C(=S)NC2CCCCC2)cc1	i
CCC(=O)NC(=S)Nc1ccc(N2CCOCC2)cc1	i
Cc1cccc(OCC(=O)N(C)c2ccccc2)c1	i
NS(=O)(=O)c1ccc(NC(=O)CSc2ccc3ccccc3n2)cc1	2%
COc1ccccc1N1CCN(C(=O)c2c(F)c(F)c(F)c(F)c2F)CC1	i
C=CCSc1nnc2c(n1)OC=Nc1ccccc1-2	i
CCOC(=O)c1sc(NC(=S)N2CCN(c3ncccn3)CC2)c(C(=O)OCC)c1C	i
CCOCC(=O)N1CCN(c2ccc(F)cc2)CC1	i
O=C(CCc1ccc(S(=O)(=O)NCc2ccccc2)cc1)Nc1ccc(Oc2ccccc2)cc1	3%
Clc1ccc(OCc2nnc(-c3ccccc3Br)o2)c(Cl)c1	4%
O=C(c1ccc(-c2ccccc2)cc1)N1CCN(Cc2ccncc2)CC1	i
Cn1c(SCCCN2C(=O)c3cccc4cccc(c34)C2=O)nnc1-c1ccncc1	i
CN1Cc2c(c(C#N)c(N)n(N)c2=S)CC1(C)C	i
Cc1c(C(=O)Nc2ccccc2)sc2ncn(Cc3ccc(F)cc3)c(=O)c12	i
O=C(CCC1CCCCC1)Nc1nn[nH]n1	1%
Brc1ccc(C=NN2CCN(C3c4ccccc4-c4ccccc43)CC2)s1	i
CCOC(=O)c1c(NC(=O)CSc2nc(N)cc(=O)[nH]2)sc2c1CCC2	i
Cc1cc(OCCn2cnc3ccccc3c2=O)cc(C(C)C)c1	5%
O=C(Nc1ccccc1)c1ccc(NC(=O)C2(c3ccccc3)CCCC2)cc1	2%
COc1ccc(-c2nc(N)n(C(=O)c3cccnc3)n2)cc1	i
COc1cccc(C(=O)Nc2ccc(F)cc2F)c1OC	1%
COc1ccc(-n2nc3ccc(NC(=S)NC(=O)C(C)(C)C)cc3n2)cc1Cl	i
CCCCC(=O)Nc1ccc(NC(=S)NC(=O)Cc2ccccc2)cc1OC	i
Cc1cccc(NC(=O)CN(c2cc(C(F)(F)F)ccc2Cl)S(C)(=O)=O)c1C	4%
CCN(CC)S(=O)(=O)c1ccc(OC)c(NC(=O)Nc2ccccc2C)c1	i
COc1cc(C(=O)N2CCN(CC3CC=CCC3)CC2)cc(OC)c1OC (stereo not drawn)	i
CCc1c(C)c2ccc(OCC(=O)c3ccc(F)cc3)cc2oc1=O	i
O=C(NCc1ccccc1F)Nc1ccc([N+](=O)[O-])cc1	i
COc1ccc(Cn2c(=O)c3c(n4cnnc24)-c2ccccc2CC32CCCCC2)cc1	2.8µg/mL*
CCOC(=O)C(Oc1ccc([N+](=O)[O-])cc1)c1ccccc1 (stereo not drawn)	16%
O=C(Nc1ccc(N2CCN(Cc3ccccc3F)CC2)cc1)c1ccccc1Br	i
CCCc1nnc(NC(=O)COc2ccc(-c3ccccc3)cc2Br)s1	i
CCOC(=O)c1cn(-c2ccccc2)nc1-c1ccc(OC)c([N+](=O)[O-])c1	i
COc1cccc(S(=O)(=O)Nc2ccc(C(C)=O)cc2)c1	3%
CCOc1ccc(NC(=O)Nc2ccc(Cl)cc2Cl)cc1	5%
COC(=O)C1=C(C)NC2=C(C(=O)CC(c3ccco3)C2)C1c1cccc(Br)c1 (stereo not drawn)	3%
COc1ccc(CCC(=O)Nc2ccc(F)c(Cl)c2)cc1	i
Cc1cc(C)cc(NC(=O)COc2ccc(C(=S)N3CCOCC3)cc2)c1	1%
Cc1ccc(N2CCN(C(=S)Nc3cccc(Cl)c3C)CC2C)cc1 (stereo not drawn)	4%

(further entries)
SMILES	Mtb H37Rv
CCOC(=O)c1sc(NC(=O)c2cc(OCC)c(OCC)c(OCC)c2)c(C(N)=O)c1C	i
O=C(Nc1ccc(-c2cn3ccccc3n2)cc1)c1ccc(Cl)cc1	2%
CNC(=S)N1N=C(c2ccccc2)CC1c1ccc(Br)cc1 (stereo not drawn)	2%
Cc1oc(-c2nc3ccccc3n2C)cc1C=O	48%
Cc1cc(C)c2ccc(C(=O)O)nc2c1O	5%
O=C(Nc1ccccc1)Nc1ccc(Br)c(Cl)c1	?
CC(C)(c1ccccc1)c1ccc(OCC(=O)NCc2ccco2)cc1	i
CC1CCc2c(sc(NC(=O)c3ccc4c(c3)OCO4)c2C#N)C1 (stereo not drawn)	i
O=C1c2cccc3cccc(c23)C(=O)N1CC1CCN(S(=O)(=O)c2cccc3cccnc23)CC1	i
Cc1cccc(N(CC(=O)Nc2ccccc2F)S(C)(=O)=O)c1	i
NC(=O)C1(N2CCCCC2)CCN(CC(=O)Nc2ccc(Oc3ccccc3)cc2)CC1	i
O=C(O)CC(C(=O)Nc1ccc(Cl)cc1)N1CCCCC1 (stereo not drawn)	2%

In the list so far, 15 have bromine:
SMILES	Mtb H37Rv
COC(=O)c1ccc(C2C3C(=O)NC(=O)C3ON2c2ccc(Br)cc2)cc1 (stereo not drawn)	i
CCOc1cc(/C=C2\C(=O)N(c3nc(-c4ccc(Br)cc4)cs3)N=C2c2ccccc2)ccc1O	0%
O=C(Nc1ccc(Br)cc1F)C1CCCO1 (stereo not drawn)	i
CCOC(=O)c1c(NC(=O)c2ccc(Br)o2)sc(C(N)=O)c1C	i
CCCn1nnc(NC(=O)c2ccc(Br)cc2)n1	i
O=[N+]([O-])c1ccc(CSc2ccc(Br)cc2)cc1	2%
CCCCNCc1cc(Br)c(OCc2cccs2)c(OC)c1	30%
COC(=O)c1c(-c2cccs2)csc1NC(=O)Cc1ccc(Br)cc1	i
Clc1ccc(OCc2nnc(-c3ccccc3Br)o2)c(Cl)c1	4%
Brc1ccc(C=NN2CCN(C3c4ccccc4-c4ccccc43)CC2)s1	i
O=C(Nc1ccc(N2CCN(Cc3ccccc3F)CC2)cc1)c1ccccc1Br	i
CCCc1nnc(NC(=O)COc2ccc(-c3ccccc3)cc2Br)s1	i
COC(=O)C1=C(C)NC2=C(C(=O)CC(c3ccco3)C2)C1c1cccc(Br)c1 (stereo not drawn)	3%
CNC(=S)N1N=C(c2ccccc2)CC1c1ccc(Br)cc1 (stereo not drawn)	2%
O=C(Nc1ccccc1)Nc1ccc(Br)c(Cl)c1	?

Screens: PubChem BioAssay, Southern Research Institute

Only part of the results is shown; the hit share may differ from the screen's.
